# High-throughput results as filed in PubChem BioAssay.
# MITF inhib = MITF inhibition | TRPM1 promoter luciferase, luminescence, 24 h | inhibition, % (concentration not given with the values) | 37,000 tested, 0.28% active;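 active = most replicates at 85% or more, or half of them and the mean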;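 also: human melanocyte line stably carrying TRPM1 promoter luciferase reporter; 0% = vehicle wells and 100% = a positive control; the first replicate is given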
# PD-1 reverse act = activators reversing PD-1 mediated T-cell inhibition. primary human CD4 T cells, PD-L1 beads, CellTiter-Glo 96 h. 29,000 tested, under 10 active. activation, % (concentration not given with the values);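 active = replicate mean of 50% or more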;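 also: 0% = median vehicle wells and 100% = positive control; 100 nL library stock added to about 50 µL; numbers are from one replicate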
# YB-1 expression = YB-1 expression inhibition; U2OS, qRT-PCR YB-1 vs CDIP delta delta Cp, 16 h; hits give high values; zero = DMSO, each unit about twofold; delta delta Cp (YB-1 minus CDIP) (test concentration not listed); 30,000 tested, 0.37% active; AID 434959;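 active = delta delta Cp rounded down to an integer at or above 3, about 3 SD of DMSO wells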;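 also: higher means less YB-1 transcript or more CDIP transcript relative to DMSO; stock transfer was 100 nL into about 100 µL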
# Shh pathway inh = Sonic Hedgehog pathway inhibition | inhibition, % (test concentration not listed) | 22,000 tested, 2.1% active | Shh-LIGHT2 Gli-luciferase reporter, 30 h | AID 2313;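 active = replicate mean of 65% or more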;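 also: pathway switched on by Shh-conditioned medium diluted 1 in 25 in low serum; 100 nL library stock added to about 40 µL; 0% = median of neutral wells and 100% = positive control level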
# * = called active by the depositor; . = not tested or not shown. Some of the compounds tested; count on the stated rates, not on these rows.
# The first five compounds as a preview:
# Second line of a record – MITF inhib, PD-1 reverse act, YB-1 expression, Shh pathway inh
CCc1cc(C(=O)OC)c(NC(=O)c2cc(-c3ccccn3)nc3ccc(Cl)cc23)s1
→ 28, 1.8, ., .
O=C1c2ccccc2-c2n[nH]c3cccc1c23
→ 6, -3.4, -0.033, -26
C[C@H](CO)N1C[C@H](C)[C@@H](CN(C)Cc2ccc3c(c2)OCO3)Oc2ccc(NC(=O)Nc3ccc4c(c3)OCO4)cc2C1=O
→ -1, 0.4, -0.061, .
COc1ccc(OC)c(S(=O)(=O)N2CCC(C(=O)Nc3ccccc3SC)CC2)c1
→ 10, 2.3, ., .
CC(C)=CCc1c(O)ccc2c1OC(c1ccc(O)c(O)c1)CC2=O (stereo not drawn)
→ 12, 0.3, -0.3, 16

# This part in full (from the top)
# Second line of a record – MITF inhib, PD-1 reverse act, YB-1 expression, Shh pathway inh
CCc1cc(C(=O)OC)c(NC(=O)c2cc(-c3ccccn3)nc3ccc(Cl)cc23)s1
→ 28, 1.8, ., .
O=C1c2ccccc2-c2n[nH]c3cccc1c23
→ 6, -3.4, -0.033, -26
C[C@H](CO)N1C[C@H](C)[C@@H](CN(C)Cc2ccc3c(c2)OCO3)Oc2ccc(NC(=O)Nc3ccc4c(c3)OCO4)cc2C1=O
→ -1, 0.4, -0.061, .
COc1ccc(OC)c(S(=O)(=O)N2CCC(C(=O)Nc3ccccc3SC)CC2)c1
→ 10, 2.3, ., .
CC(C)=CCc1c(O)ccc2c1OC(c1ccc(O)c(O)c1)CC2=O (stereo not drawn)
→ 12, 0.3, -0.3, 16
CC1CN(c2nc3ccccc3nc2SCC(=O)Nc2ccccc2)CC(C)O1 (stereo not drawn)
→ -12, -1.6, -1.1, -36
COc1ccc([N+](=O)[O-])cc1NC(=O)CS(=O)(=O)Cc1ccccc1
→ -2, 1.1, ., .
CC(C)NC(=O)N(C)C[C@H]1Oc2c(NC(=O)Nc3ccc(F)cc3)cccc2C(=O)N([C@@H](C)CO)C[C@@H]1C
→ -4, ., 0.035, 7
C[C@@H]1CCCCO[C@@H](CN(C)S(C)(=O)=O)[C@@H](C)CN([C@H](C)CO)C(=O)c2cc(NS(=O)(=O)c3ccc(F)cc3)ccc2O1
→ 1, 1.3, -0.21, 74*
Cc1noc(C)c1NC(=O)Nc1cccc2c1O[C@H](CN(C)C(=O)Nc1ccccc1)[C@@H](C)CN([C@H](C)CO)C2=O
→ -4, ., -0.25, -8
CCN(CC(=O)O)S(=O)(=O)c1ccc(C)cc1
→ -3, 2.0, ., .
N#CC(c1ccc(O)cc1)N1CCN(C(C#N)c2ccc(O)cc2)CC1 (stereo not drawn)
→ -9, -0.4, 0.29, -4
C[C@H](CO)N1C[C@H](C)[C@H](CN(C)S(=O)(=O)c2ccc(F)cc2)Oc2ccc(NC(=O)Nc3ccc4c(c3)OCO4)cc2C1=O
→ -38, 0.6, 0.37, .
N#Cc1ccccc1CSc1nnc(-c2ccco2)n1-c1ccccc1
→ 4, -3.1, ., .
Cc1ccc(Nc2nc(N)nc(COc3cccc4cccnc34)n2)cc1
→ -33, -2.2, ., .
COc1ccc(S(=O)(=O)Nc2ccc3c(c2)CC(=O)N([C@H](C)CO)C[C@@H](C)[C@H](CN(C)S(C)(=O)=O)O3)cc1
→ 5, 0.4, -0.5, .
C[C@@H]1CCCCO[C@H](CN(C)Cc2ccc(C(=O)O)cc2)[C@@H](C)CN([C@H](C)CO)C(=O)c2cc(N(C)C)ccc2O1
→ -6, ., 0.16, 13
COC(=O)c1sccc1NC(=O)COc1cc(C)ccc1Cl
→ -4, 0.4, ., .
C[C@H]1CN([C@@H](C)CO)C(=O)Cc2cc(NC(=O)Nc3ccc4c(c3)OCO4)ccc2O[C@@H]1CN(C)CC1CCCCC1
→ 23, 1.8, 0.69, -43
O=C1CN(/N=C/c2ccc([N+](=O)[O-])o2)C(=O)N1
→ 14, 0.7, 0.17, -5
O=S(=O)(NC1=NCCCN1)c1cc(C(F)(F)F)cc(C(F)(F)F)c1
→ 8, 0.6, -0.44, -15
C[C@@H]1CN([C@@H](C)CO)C(=O)c2cc(NC(=O)Cc3ccccc3)ccc2O[C@@H]1CN(C)Cc1ccc(C(=O)O)cc1
→ 1, -0.1, 0.15, 8
C[C@H](CO)N1C[C@H](C)[C@@H](CN(C)Cc2ccc3c(c2)OCO3)Oc2ccc(NC(=O)Cc3cn(C)c4ccccc34)cc2C1=O
→ 23, -3.4, 0.081, .
Cc1noc(C)c1NC(=O)Nc1ccc2c(c1)CC(=O)N([C@H](C)CO)C[C@H](C)[C@H](CN(C)Cc1ccc(C(=O)O)cc1)O2
→ -3, 0.3, 0.18, -12
C[C@@H]1CN([C@H](C)CO)C(=O)Cc2cc(NS(=O)(=O)c3ccccc3)ccc2O[C@@H]1CN(C)Cc1ccc(C(=O)Nc2ccccc2N)cc1
→ 3, -1.0, -0.22, .
Cc1c(NC(=O)CN2C(=O)c3cccc4cccc2c34)c(=O)n(-c2ccccc2)n1C
→ -14, 0.4, ., .
C[C@@H]1CN([C@H](C)CO)C(=O)c2cccc(N(C)C)c2O[C@H]1CN(C)Cc1ccccc1
→ 18, -2.6, 0.46, -14
COc1ccc(CN(C)C[C@@H]2Oc3ccc(NS(=O)(=O)c4cccs4)cc3CC(=O)N([C@H](C)CO)C[C@H]2C)cc1
→ 0, ., -0.15, -4
COc1ccc(NC(=O)Nc2ccc3c(c2)C(=O)N([C@H](C)CO)C[C@H](C)[C@H](CN(C)S(=O)(=O)c2cccs2)OCCCC[C@@H](C)O3)cc1
→ 0, -2.4, 0.15, 16
C[C@H](CO)N1C[C@H](C)[C@H](CN(C)C(=O)Nc2cccc3ccccc23)Oc2ccc(NC(=O)CCN3CCOCC3)cc2CC1=O
→ 2, -1.5, -0.14, -7

# (more compounds)
smiles | MITF inhib | PD-1 reverse act | YB-1 expression | Shh pathway inh
C[C@H]1CN([C@@H](C)CO)C(=O)c2cccc(NC(=O)NC3CCCCC3)c2O[C@H]1CN(C)C(=O)Nc1ccccc1 | 6 | 0.6 | 0.32 | -2
COc1ccc(Cl)cc1NC(=S)NCc1ccccn1 | 27 | -4.1 | . | .
C[C@]12CC[C@@H]3c4ccc(O)cc4CC[C@H]3[C@@H]1CCC2=O | 8 | . | 0.13 | 73*
COc1cc2c(cc1OC)CN(C(=O)CSc1n[nH]c(N)n1)CC2 | -6 | -0.5 | . | .
COc1cc2c(cc1OC)C1(CCCC1)CN(C(=O)c1cc(Br)ccc1OC)C2 | 36 | -1.3 | 0.25 | -3
CC(=O)Oc1cc(C(C)C)c(OCCN(C)C)cc1C | -8 | . | -0.24 | -54
CCc1ccc(NC(=O)CSc2nnc(-c3ccc(Br)cc3)o2)cc1 | -49 | 1.8 | . | .
N#Cc1cnc(SCC(=O)NC(=O)Nc2ccccc2)nc1N | -17 | -0.5 | 0.61 | 9
CC(=O)N[C@@H](C(=O)O[C@H]1CCC(C)(C)[C@@H]2CCC3=C(COC3=O)[C@@]12C)C(C)C | -5 | -1.6 | 0.59 | -2
Cc1nc(SCC(=O)Nc2sc3c(c2C#N)CCCC3)nc2c1CCCC2 | -1 | -0.8 | . | .
CSc1ccccc1NC(=O)CN(c1cccc(F)c1)S(C)(=O)=O | -2 | 1.0 | . | .
Cc1cccc(NC(=O)C2Sc3nnc(-c4ccccc4)n3NC2c2ccccc2)c1 (stereo not drawn) | 59 | 0.1 | 0.05 | 19
C[C@@H]1CN([C@@H](C)CO)C(=O)c2cccc(NS(=O)(=O)c3ccc(Cl)cc3)c2O[C@H]1CN(C)C | -1 | 1.9 | 0.43 | 10
CCCc1nc(C)c2c(=O)[nH]c(-c3cc(S(=O)(=O)N4CCN(CC)CC4)ccc3OCC)nn12 | 5 | . | 0.11 | 20
C[C@H](CO)N1C[C@H](C)[C@H](CN(C)Cc2ccc(Oc3ccccc3)cc2)Oc2ccc(NS(=O)(=O)c3cccs3)cc2C1=O | 4 | -0.8 | -0.085 | 25
C[C@@H]1CN([C@@H](C)CO)C(=O)Cc2cc(NC(=O)c3ccncc3)ccc2O[C@@H]1CN(C)Cc1ccc(C(=O)O)cc1 | 4 | . | -0.094 | -6
C[C@H]1CN([C@@H](C)CO)C(=O)c2cc(NC(=O)Nc3cccc4ccccc34)ccc2O[C@H]1CN(C)S(=O)(=O)c1cccs1 | -16 | -0.8 | 0.51 | -23
C[C@H](CO)N1C[C@H](C)[C@H](CN(C)C(=O)Nc2cccc3ccccc23)Oc2ccc(NC(=O)c3ccncc3)cc2C1=O | -3 | -1.2 | -0.038 | -2
C[C@@H]1CCCCO[C@@H](CN(C)C)[C@@H](C)CN([C@H](C)CO)C(=O)c2cc(NS(=O)(=O)c3ccc(Cl)cc3)ccc2O1 | -16 | 1.4 | -0.13 | -27
CC(C)NC(=O)Nc1ccc2c(c1)CC(=O)N([C@H](C)CO)C[C@@H](C)[C@@H](CN(C)C(=O)NC1CCCCC1)O2 | -11 | 0.7 | -0.049 | -21
Cc1cccc(OCC(=O)Nc2ccccc2N2CCN(S(C)(=O)=O)CC2)c1C | -15 | -2.0 | . | .
C[C@H](CO)N1C[C@H](C)[C@H](CN(C)Cc2ccc(-c3ccccc3)cc2)Oc2ccc(NC(=O)Nc3ccc4c(c3)OCO4)cc2CC1=O | 26 | 1.8 | 0.013 | .
COc1ccc(NC(=O)CNS(=O)(=O)c2ccccc2)cc1Cl | -17 | 1.2 | . | .
COC(=O)c1ccccc1NC(=O)COc1c(Cl)cc(Cl)c2ccccc12 | 46 | 1.1 | . | .
Cc1noc(C)c1NC(=O)Nc1ccc2c(c1)C(=O)N([C@H](C)CO)C[C@H](C)[C@@H](CN(C)Cc1ccc(Oc3ccccc3)cc1)O2 | -2 | . | 0.14 | 33
COc1ccc(C(=O)O)cc1NC(=S)NC(=O)COc1ccc(Br)cc1 | -12 | -0.1 | . | .
CSC(=O)OCC1=C[C@H](O)[C@@H]2C(C(=O)O)=CO[C@@H](OC3OC(CO)C(O)C(O)C3O)[C@H]12 (stereo partly drawn) | 17 | 1.8 | 4.1* | -20
C[C@@H]1CN([C@H](C)CO)C(=O)c2cc(NC(=O)c3ccncc3)ccc2O[C@H]1CN(C)Cc1ccc(-c2ccccc2)cc1 | 1 | -1.8 | -0.32 | 89*
CCC1SC2=NCN(c3ccccc3)CN2C1=O (stereo not drawn) | 6 | 0.7 | 0.091 | -48
CC1=C(C(=O)OCc2ccccc2)C(c2ccccc2)NC(=O)N1C (stereo not drawn) | -2 | 0.3 | -0.2 | .
CCOc1ccc(NC(=O)CSc2nc(C)nc3sc4c(c23)CCCC4)cc1 | 15 | -1.4 | . | .
CC(=O)Nc1cccc(-c2nnc(SCC(=O)Nc3ccc(C(C)=O)cc3)n2C)c1 | -41 | 0.5 | . | .
C[C@H]1CN([C@@H](C)CO)C(=O)Cc2cc(NS(C)(=O)=O)ccc2O[C@H]1CN(C)Cc1ccc(Oc2ccccc2)cc1 | 4 | -0.4 | -0.28 | 24
C[C@]12CCC3c4ccc(O)cc4CCC3C1CCC2=O (stereo partly drawn) | -32 | . | 0.032 | 89*
c1ccc(-c2cnc(SCc3nc4ccccc4[nH]3)[nH]2)cc1 | 14 | 2.3 | . | .
Cc1nc(-n2nnc3cc(C)c(C)cc32)c2c3c(sc2n1)CCCC3 | 20 | -0.1 | -0.11 | -9
NC(=O)OCC(COC(N)=O)c1ccccc1 | 11 | 1.6 | 0.16 | 23
Cc1cc(O)cc2c(=O)oc(CC(C)O)cc12 (stereo not drawn) | 21 | -1.2 | -0.44 | -17
C=CC(C)(C)[C@@]12C[C@H]3C(=O)Nc4ccccc4C(=O)N3[C@@H]1Nc1ccccc12 | -8 | 1.5 | -0.54 | -11
Cc1nn(Cc2ccc(Br)cc2)c(C)c1NC(=O)Cn1nc(C(F)(F)F)c2c1CCCCC2 | 1 | -0.7 | . | .

# Entries above that contain a CF3 group (2):
smiles | MITF inhib | PD-1 reverse act | YB-1 expression | Shh pathway inh
O=S(=O)(NC1=NCCCN1)c1cc(C(F)(F)F)cc(C(F)(F)F)c1 | 8 | 0.6 | -0.44 | -15
Cc1nn(Cc2ccc(Br)cc2)c(C)c1NC(=O)Cn1nc(C(F)(F)F)c2c1CCCCC2 | 1 | -0.7 | . | .

# (next part)
smiles | MITF inhib | PD-1 reverse act | YB-1 expression | Shh pathway inh
CC(C)NC(=O)N(C)C[C@@H]1Oc2c(NS(=O)(=O)c3ccccc3)cccc2C(=O)N([C@H](C)CO)C[C@H]1C | -3 | 1.0 | 0.036 | 40
C[C@@H]1CN([C@H](C)CO)C(=O)Cc2cc(NC(=O)CCCCCC(=O)Nc3ccccc3N)ccc2O[C@@H]1CN(C)C(=O)Nc1ccccc1 | -8 | 1.2 | -0.18 | .
CC1=C(C#N)C(c2ccccc2)C(C#N)=C(C)N1 | 7 | -0.7 | -0.19 | -31
COc1ccc(CN(C)C[C@@H]2Oc3c(NS(=O)(=O)c4ccc(OC)cc4)cccc3C(=O)N([C@@H](C)CO)C[C@H]2C)cc1 | -7 | . | -0.1 | -4
COc1ccc(S(=O)(=O)Nc2ccc3c(c2)C(=O)N([C@@H](C)CO)C[C@@H](C)[C@H](CN(C)S(=O)(=O)c2ccc(OC)cc2)O3)cc1 | 3 | 0.0 | 0.31 | 9
O=C(Oc1ccc(OC(=O)c2ccccc2)cc1)c1ccccc1 | 6 | 0.3 | -0.17 | .
